Source: PubChem BioAssay (National Center for Advancing Translational Sciences (NCATS))
Cruzain inh Det: cruzain (T. cruzi) inhibition with detergent; P25779; purified cruzain, Z-FR-AMC fluorescence, 0.01% Triton; Potency, µM, for the others: max response, negative = inhibition, usual class: inhibitors; actives 0.43% (n = 200,000); AID 1478;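 note: plate controls were neutral wells for no effect and buffer without enzyme for full effect; nearly all actives have a fitted effect of over 40% in size; top concentration of the series not given in the record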
Target sequence (P25779 123-467 limits assumed): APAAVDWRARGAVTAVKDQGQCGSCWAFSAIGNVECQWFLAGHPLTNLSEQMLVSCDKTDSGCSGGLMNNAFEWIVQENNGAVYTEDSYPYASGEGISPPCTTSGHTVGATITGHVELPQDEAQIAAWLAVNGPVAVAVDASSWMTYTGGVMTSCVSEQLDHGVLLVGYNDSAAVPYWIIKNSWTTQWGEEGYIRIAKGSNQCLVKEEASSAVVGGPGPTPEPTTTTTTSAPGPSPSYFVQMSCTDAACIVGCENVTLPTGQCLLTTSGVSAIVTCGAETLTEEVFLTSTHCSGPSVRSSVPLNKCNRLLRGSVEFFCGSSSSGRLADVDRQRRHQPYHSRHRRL
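In this qHTS format, compounds are incubated with 1.5 nM cruzain for 15 min at room temperature before 2 uM Z-FR-AMC is added. Release of AMC is followed at 360/450 nm, and progress is taken as the 60 s fluorescence difference.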
NS1 inh: inhibitors of influenza NS1 protein function. S. cerevisiae slowed by influenza A NS1, growth recovery by OD600. AID 2326. Potency, µM (top dose mostly 46.1 µM), inactives show at the top dose activity, positive = more growth. actives 0.4% (n = 270,000); active means well fitted rising curve with a large enough effect; inconclusive means small, poorly fitted or top-dose-only effect; inactive means no such curve, though single readings can be large or run the other way; note: nearly all actives have a fitted effect of over 50% in size
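OD600 was taken as the measure of yeast growth restored by compound in an NS1-expressing S. cerevisiae strain. Cells had been washed out of glucose medium and diluted 1:100 into galactose -URA medium, pH 6.0.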
StopGo reporter: lowers the luciferase signal of an FMDV 2A StopGo reporter. human cells with a luciferase reporter of 2A StopGo recoding; control for the full effect not named in the record. AID 1159524. Potency, µM (top dose mostly 57.9 µM), without a hit: at the top dose signal change, negative = less light. actives 1.2% (n = 410,000); active = well fitted falling curve with a large enough effect; inconclusive = small, poorly fitted or top-dose-only effect; inactive = no such curve, though single readings can be large or run the other way; tested in HEK293T cells; note: % is set by controls: 0 for no effect and ±100 for the full control effect; nearly all actives have a fitted effect of over 45% in size; luciferase light after 4 h
RE007 growth inh: less growth of the S. pombe RE007 Vpr strain | AID 651644 | S. pombe RE007 Vpr strain, BacTiter-Glo ATP luminescence, 24 h; control for the full effect not named in the record | Potency, µM (doses to about 92.2 µM), for inactives: at the top dose activity change, negative = less growth | actives 0.21% (n = 360,000); active = well fitted falling curve with a large enough effect; inconclusive = small, poorly fitted or top-dose-only effect; inactive = no such curve, though single readings can be large or run the other way;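 note: % is set by controls: 0 for no effect and ±100 for the full control effect; nearly all actives have a fitted effect of over 50% in size; the assay follows cell death caused by Vpr and the record does not say whether a fall means rescue or toxicity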
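Fission yeast strain RE007, carrying one chromosomally integrated HIV-1 vpr copy, was seeded at OD 0.01 in PMG+AL medium with 23 nL pinned compound. After 24 h at 30 °C and 99% humidity, viability was read by BacTiter-Glo luminescence.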
Cruzain noTriton: cruzain (T. cruzi) inhibition without detergent; purified cruzain, Z-FR-AMC fluorescence, no detergent; actives 2.3% (n = 200,000); Potency, µM, inactives show max response, negative = inhibition, hits mostly inhibitors;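 note: plate controls were enzyme without inhibitor for no effect and buffer without enzyme for full effect; nearly all actives have a fitted effect of over 40% in size; top concentration of the series not given in the record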
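Detergent-free condition (0.00005% Triton X-100) in acetate buffer pH 5.5 with DTT. 1.5 nM enzyme and compound were pre-mixed 15 min, then 2 uM Z-FR-AMC substrate added; reaction progress from fluorescence change between first and third reads (60 s).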
LASV entry inh: blocks Lassa virus binding to or entry into cells; Lassa virus pseudotype entry inhibition, cell reporter; control for the full effect not named in the record; Potency, µM (highest dose often 37.9 µM), for inactives: top-dose activity change, negative = inhibition, usual class: inhibitors; actives 1.2% (n = 300,000); AID 540256; active means well fitted inhibition curve with a large enough effect; inconclusive means small, poorly fitted or top-dose-only effect, or effect the other way; inactive means flat fitted curve, though single readings scatter; tested in HEK293 cells; note: % is set by controls: 0 for no effect and ±100 for the full control effect; nearly all actives have a fitted effect of over 50% in size; luciferase read-out
MARV entry inh: blocks Marburg virus binding to or entry into cells; Potency, µM (top dose mostly 37.8 µM), for inactives: at the highest dose activity change, negative = inhibition, actives largely listed as inhibitors; actives 1.8% (n = 300,000); Marburg virus pseudotyped entry inhibition, cell reporter; control for the full effect not named in the record; about a third of the inactives were read at about 46 µM; active = well fitted inhibition curve with a large enough effect; inconclusive = small, poorly fitted or top-dose-only effect, or effect the other way; inactive = flat fitted curve, though single readings scatter; tested in HEK293 cells; about a fifth of its hits are not listed in these tables; note: % is set by controls: 0 for no effect and ±100 for the full control effect; luciferase read-out
SARS PLP yeast: inhibitors of SARS-CoV papain-like protease in yeast; S. cerevisiae expressing SARS-CoV PLpro, growth rescue; control for the full effect not named in the record; Potency, µM (highest dose often 32.9 µM), inactives show at the top dose activity, positive = growth rescue; actives 0.19% (n = 330,000); active means well fitted rising curve with a large enough effect; inconclusive means small, poorly fitted or top-dose-only effect; inactive means no such curve, though single readings can be large or run the other way; note: 0% is about no effect; nearly all actives have a fitted effect of over 55% in size; growth read by luminescence after 48 h
Starred values were filed as active, the others as inactive; ? = inconclusive; . = no result given; & = joins results of further samples; [ ] = remark or other dose. Unless noted, calls come from the whole dose curve; as a rule, active = well fitted curve in the direction sought with a large enough effect; inconclusive = small, poorly fitted or top-dose-only effect, or another doubt; inactive = no such curve, though single readings can be large; an effect the other way counts as inactive or inconclusive. Potency is the fitted concentration of half-maximal effect.

canonical_smiles	LASV entry inh	RE007 growth inh	MARV entry inh	NS1 inh	Cruzain inh Det	StopGo reporter	SARS PLP yeast	Cruzain noTriton
CC(O)CNc1cc(N)c([N+](=O)[O-])cc1[N+](=O)[O-] (stereo not drawn)	-4%	-2%	3%	4%	-15%	-18%	-6%	-19%
CCOCCCn1c(SCC(=O)NC2CCCC2)nc2ccccc2c1=O	.	1%	.	5%	.	-9%	0%	.
CSc1ccccc1NC(=O)CN1CCN(S(=O)(=O)c2ccccc2[N+](=O)[O-])CC1	?	1%	-58%	.	.	?	3%	.
Cc1c(O)ccc2c(CC(=O)N[C@@H](Cc3ccccc3)C(=O)O)cc(=O)oc12	.	-3%	.	7%	.	-1%	-2%	.
COc1cccc(-c2c(C(=O)N/N=C/c3sccc3C)nnn2-c2nonc2N)c1	.	-2%	.	-5%	.	-2%	18%	.
Cc1ccc(NC(=O)/C(=C/c2ccc([N+](=O)[O-])cc2)NC(=O)c2ccccc2)cc1	-14%	-8%	-4%[46.1 µM]	-9%	.	11%	-1%	.
COC(C(=O)NCc1ccccc1C)c1ccccc1 (stereo not drawn)	-1%	13%	-2%	-10%	2.4%	-18%	2%	8%
Cc1cc(C)c2c(CN3CCC(C)CC3)cc(=O)oc2c1	0%[46.1 µM]	-7%	?	-1%	.	30%[activator]	2%	.
O=C(O)c1cnn(-c2ccccc2)c1-n1cccc1	.	-11%	.	-10%	-1.0%	-18%	1%	-5%
Cc1ccc(C2(C)NC(=O)N(CC(=O)Nc3ccc(Cl)c(S(=O)(=O)N4CCCCC4)c3)C2=O)cc1 (stereo not drawn)	-27%	0%	11µM*	.	.	-22%	2%	.
CCN(CC(O)c1cccc(O)c1)C(=O)C12CC3CC(CC(C3)C1)C2 (stereo not drawn)	.	5%	.	1%	.	1%	-4%	.
COCCCNC(=O)C1CCC(CNS(=O)(=O)c2ccc(OC)cc2)CC1 (stereo not drawn)	4%	1%	-2%&-2%	.	-0.9%	-9%&8%	1%	-2%
CCCn1nnnc1NC(=O)c1cc(Cl)ccc1Cl	-10%	5%	-12%	-6%	2.5%	0%	10%	9%
CC(C)(C)C1=NN=C2c3ccccc3C(=O)C21 (stereo not drawn)	.	-3%	.	-48%	.	-14%	-5%	.
O=C(CN1C(=O)C2C3C=CC(C4CC34)C2C1=O)Nc1cnc2ccccc2c1 (stereo not drawn)	-22%[46.1 µM]	-4%	2%[46.1 µM]	-4%	.	6%	0%	.
CS(=O)(=O)N1CCC(C(=O)Nc2cccc(Cl)c2Cl)CC1	-22%[46.1 µM]	0%	0%[46.1 µM]	0%	.	-7%	-4%	.
CC1CCc2c(sc3ncn(CCO)c(=O)c23)C1 (stereo not drawn)	20%[46.1 µM]	-25%	1%[46.1 µM]	-7%	.	24%	2%	.
Cn1nc(C(F)(F)F)c(-c2ccc(Br)cc2)c1NC(=O)c1nccnc1C(=O)O	.	22%	.	5%	.	-6%	-2%	.
CN(C)S(=O)(=O)c1ccc2c(c1)nc(CCC(=O)NCc1ccc(Cl)cc1)n2C	-23%[46.1 µM]	13%	8%[46.1 µM]	1%	.	-7%	0%	.
O=C(O)/C=C\C(=O)Nc1ccc(F)c(F)c1F	.	-7%	.	4%	.	-4%	0%	.
Cn1c2ccccc2c(=O)c2ccc(C#CC3(N)CCCCC3)cc21	.	-11%	.	17%	.	6%	13%	.
CC1(C(=O)NCc2ccccc2)Oc2ccccc2NC1=O (stereo not drawn)	?	10%	2%	4%	2.1%	7%	2%	-1%
Cn1c(CO)cnc1SCc1c(Cl)cccc1Cl	-10%	2%	-2%	-11%	4.9%	-16%	6%	-1%
COc1ccc(Nc2nnc(SCC(=O)/C=C3/N(C)c4ccccc4C3(C)C)s2)cc1	14µM*	2%	?	15%	-2.2%	20µM*	-36%	?
Cc1c(Cl)cccc1NC(=O)c1cc(-c2ccco2)on1	0%	-7%	11%[46.1 µM]	-15%	.	21%	-4%	.
CCOC(=O)c1c(C)n(Cc2ccco2)c2ccc(OC)cc12	-16%	0%	3%	-8%	-18%	-10%	0%	9%
Cc1ccc(CNc2nc(-c3cccnc3)nc3ccccc23)cc1	?	?	?	-88%	.	-26%	-17%	.
Cc1ccc(C(CC(=O)O)C2CCOC(C)(C)C2)cc1 (stereo not drawn)	-1%	-5%	?	9%	6.2%	.	-2%	1%
CCc1cccc(NC(=O)C(NS(=O)(=O)c2ccc3nc(C)sc3c2)C(C)C)c1 (stereo not drawn)	25%[46.1 µM]	.	-28%[46.1 µM]	.	-0.9%	-6%	.	4%
NC(=O)C1CCN(C(=O)COc2cccc3ccccc23)CC1	13%	41%	11%	3%	-0.9%	.	-5%	-1%
NC(=O)c1ccc[n+](CC(=O)c2ccccc2)c1	10%[46.1 µM]	40%	?	0%	.	-20%	0%	.
CC(C)Oc1ccc(S(=O)(=O)N2CCOCC2)cc1NC(=O)C1CSC2(C)CCC(=O)N12 (stereo not drawn)	?	2%	-15%[46.1 µM]	.	.	2%	-1%	.
CC(C)c1nnc(N2C(=O)c3oc4ccccc4c(=O)c3C2c2ccco2)s1 (stereo not drawn)	5%	11%	14%&14%	?	-5.4%	0%	-1%	?
COc1ccc(-n2c(Cn3nnc4ccccc43)nnc2SCC(=O)O)cc1	-2%	-2%	24%	2%	5.3%	9%	0%	-8%
CCn1nnnc1SCC(=O)N1CCCCC1	16%	-6%	-5%[46.1 µM]	.	.	-13%	-6%	.
COc1ccc(S(=O)(=O)N(C)c2ccc(C(=O)NCc3ccccn3)cc2)cc1	5%	5%	-1%	1%	.	-14%	0%	.
CCOC(=O)Cn1c(=O)n(CC2CCCO2)c2nc(-c3ccc(CC)cc3)nc(C(N)=O)c21 (stereo not drawn)	-19%[46.1 µM]	.	.	.	-6.0%	?	.	7%
O=C(Nc1ccccc1Cl)C1CCN(c2nc3ccccc3nc2C(F)(F)F)CC1	-4%[46.1 µM]	.	.	.	2.3%	5%	.	-4%
COC(=O)c1nnn(-c2cc(Cl)cc(Cl)c2)c1C(=O)OC	.	0%	.	-2%	.	-2%	-1%	.
O=C(COC(=O)CN1C(=O)c2cccc([N+](=O)[O-])c2C1=O)NC1CCS(=O)(=O)C1 (stereo not drawn)	.	13%	.	3%	.	-16%	1%	.
CC(=O)c1ccc(S(=O)(=O)NC2CC(=O)N(c3ccc(C)cc3)C2)cc1 (stereo not drawn)	-12%	4%	?	.	.	-3%	-1%	.
CC(C)(C)c1ccc(OCCCCCCN2CCNCC2)cc1	-23%	22%	?	.	.	-13%	.	.
CCCc1nc2ccccc2n1CC(O)COc1ccc(C(=O)OC)cc1 (stereo not drawn)	-18%[46.1 µM]	.	?	.	-2.9%	28µM*	.	7%
Cc1ccc(CNC(=O)C2CCC(=O)N(Cc3ccc(Cl)cc3)C2)cc1F (stereo not drawn)	?	3%	7%	-4%	.	7%	.	.
Cc1cccc(-n2ncc(C(=O)NC3CCCC3)c2C2CCN(C(=O)OC(C)(C)C)CC2)c1	.	-7%	.	12%	.	-3%	1%	.
CCOCCOC(=O)c1ccc(NC(=O)C2COc3ccccc3O2)cc1 (stereo not drawn)	.	-21%	.	-24%	.	12%	1%	.
Clc1ccc(OCCn2ccnc2)cc1Cl	?	-27%	-10%[46.1 µM]	-22%	.	-7%	-1%	.
COP(=O)(OC)C1(Nc2ccc(C)cc2)CCCCC1	13%	2%	9%	-1%	2.9%	-7%	5%	1%
Cc1nc(N)nc(-c2ccccc2O)n1	9%	-23%	-2%	-15%	6.3%	11%	-30%	-9%
COc1cccc2c1cc1c(=O)n(CC(=O)NCCCN3CCCCC3)nc(C)n12	.	9%	.	10%	.	-6%	-2%	.
CCOC(=O)C1=C(C)N(c2ccc(C)c(C)c2)C(=O)/C1=C\c1ccco1	2%	14%	-25%	8%	-6.5%	-1%	3%	-10%
COc1ccc(CCNC(=O)CSCc2nc(-c3ccc(OC)c(OC)c3)oc2C)cc1OC	-2%[46.1 µM]	.	?	.	2.5%	-14%	.	?
CCOc1ncccc1C(=O)NNC(=O)c1csc(N2CCOCC2)n1	-17%	-3%	?	.	.	-13%	0%	.
O=C1c2cccc3c([N+](=O)[O-])ccc(c23)C(=O)N1CCc1ccccn1	15%[46.1 µM]	-9%	2%[46.1 µM]	3%	.	0%	-1%	.
Cc1cc(/C=N/NC(N)=S)c(C)n1-c1cccc(Cl)c1	?	3%	?	.	.	-10%	3%	.
COc1ccc(/C=N/NC(=O)Cc2csc(Nc3cccc(C(F)(F)F)c3)n2)c(OC)c1	-9%	22%	-17%	18%	-3.4%	-8%	-2%	-27%
CCCOc1ccc(C(=O)NCCO)cc1	22%	-1%	10%	0%	-0.6%	28%	-8%	6%
COc1ccc(OCCCC(=O)Nc2ccc3c(c2)OCCO3)cc1	2%	1%	17%	5%	1.0%	.	-3%	-2%
CN1CCN(c2nc3ccccc3c(=O)n2-c2ccccc2)CC1	.	-10%	.	5%	1.0%	-18%	11%	5%
COc1ccc(S(=O)(=O)N2CCCC2CNC(=O)C(=O)NCc2ccc3c(c2)OCO3)cc1 (stereo not drawn)	?	9%	?	.	.	-17%	1%	.
CN(C)S(=O)(=O)c1ccc(N2CCCC2)c(C(=O)Nc2nc3ccccc3s2)c1	8%	1%	?	?	-8.1%	50%[activator]	7%	?
COc1ccccc1C(=O)OCc1ccc2sc(C)nc2c1	-1%[46.1 µM]	-18%	24%[46.1 µM]	-40%	.	?	12%	.
COC(=O)Nc1ccccc1C(=O)N1CCCCC1	-21%	-7%[3.69 µM]	-16%	2%	4.7%	5%	1%	3%
